CSC inhib: blocks cancer stem cells; cancer stem cell-like cells viability, luminescence; 1.1% of 300,000 active; inhibition, % at 7.5 µM;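 active means mean at 75% or more and at least half the replicates too; tested in HMLE shEcad cells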;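 further: 0% = median of negative and 100% = median of positive control wells; the first replicate is given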
MT1-MMP act inh: blocks activation of human MT1-MMP. P50281. HT1080 RFP-PRO-GFP cells, GFP/RFP ratio fluorescence, overnight; percent of plate control window, DMSO zero. GFP/RFP ratio change, % at 20 µM. 0.061% of 360,000 active. AID 651647;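 active means GFP/RFP ratio change of at least 30% with cell ATP level not reduced by more than half and red fluorescence within 50% of control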; further: strong numbers were not always called active
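Test system: HT1080 cells expressing an RFP-PRO-GFP fluorescent reporter construct / Compound dosing: single-point 20 µM compound, 1% DMSO / Schedule: cells overnight before dosing, compound overnight, 37 °C, 5% CO2 / Evaluation: GFP/RFP fluorescence ratio / Control set: DMSO and RFP-L50D-GFP cell wells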
Rce1 inh: blocks yeast Ras-converting enzyme; 0.27% of 290,000 active; AID 2563; calls only; yeast membranes, quenched prenylated peptide cleavage fluorescence;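 active means fall in fluorescence gain of 50% or more versus controls, with final raw signal at or below 3038400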;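 further: plate controls were neutral control wells for no effect and wells lacking membranes for full effect; tested at 10 µM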
Env fusion inh: blocks HIV Env-driven cell-cell fusion; HeLa-JRFL Env/CEM21 cell fusion, luciferase; inhibition, % at 12.3 µM; 1.1% of 360,000 active; AID 651610;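 active means mean replicate inhibition score of at least 50 and every replicate individually at or above 50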;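 further: 0% = plate neutral controls and 100% = maraviroc near 300 nM; one replicate is shown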
PABP polyA inh: blocks human PABP binding to poly(A) RNA; 1% of 290,000 active; inhibition, % at 35 µM; fluorescence polarization;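 active means 50% or more with normal probe brightness, or confirmed in later tests; about a fifth of its hits are not listed in these tables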;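 further: calls also rest on retests at 20 µM and on dose response follow-up; controls were probe without protein and protein plus probe with vehicle; some compounds called inactive have numbers as strong as hits; many hits fall short of the cut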
Target sequence (P11940 whole entry, looked up): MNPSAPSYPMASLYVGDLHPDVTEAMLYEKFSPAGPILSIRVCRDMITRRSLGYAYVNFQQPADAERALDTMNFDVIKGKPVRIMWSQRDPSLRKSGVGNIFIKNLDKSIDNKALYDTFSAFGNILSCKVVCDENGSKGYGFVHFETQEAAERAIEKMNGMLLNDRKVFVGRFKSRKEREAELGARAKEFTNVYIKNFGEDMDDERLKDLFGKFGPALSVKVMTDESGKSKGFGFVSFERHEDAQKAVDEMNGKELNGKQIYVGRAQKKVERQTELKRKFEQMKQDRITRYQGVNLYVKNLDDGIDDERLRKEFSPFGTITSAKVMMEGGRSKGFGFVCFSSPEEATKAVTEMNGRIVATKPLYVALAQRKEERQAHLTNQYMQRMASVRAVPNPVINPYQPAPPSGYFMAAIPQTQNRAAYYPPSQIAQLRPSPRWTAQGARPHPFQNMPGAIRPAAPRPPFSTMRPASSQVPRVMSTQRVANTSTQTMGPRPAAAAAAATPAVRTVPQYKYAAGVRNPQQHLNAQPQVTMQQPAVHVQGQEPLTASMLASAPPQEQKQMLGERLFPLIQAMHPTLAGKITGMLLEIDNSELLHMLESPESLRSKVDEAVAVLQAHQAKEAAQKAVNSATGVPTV
eIF4H inh: inhibitors of RNA binding by human eIF4H; Q15056; eIF4H fluorescence polarization binding assay; inhibition, % at 35 µM; 0.94% of 290,000 active; AID 2012;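 active means 50% or more with normal probe brightness, or confirmed in later tests; about a fifth of its hits are not listed in these tables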;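 further: calls also rest on retests at 20 µM and on dose response follow-up; 0% = protein and probe with vehicle and 100% = probe without protein; strong numbers were not always called active; many hits fall short of the cut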
UUG fidelity: yeast start codon fidelity modulation; S. cerevisiae UUG-firefly luciferase reporter, luminescence/redox ratio; activity score, % at 18.7 µM; 0.13% of 350,000 active; AID 602363;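 active means replicate mean at a twofold rise or more, about +100% in these data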;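 further: firefly luciferase made from a UUG start codon reports start codon fidelity; reporter light over untreated wells divided by growth signal over untreated wells; some hits fall short of that in this replicate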
MT1-MMP act inh RFP: recorded beside MT1-MMP act inh, whose call it bears; RFP signal change, %; measured here: RFP expression control read;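 0 = vehicle wells; hits needed this value within 50% of zero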
Numbers without * were called inactive; i = inactive; . = not tested or not shown. Only part of the results is shown (hit frequency here may not be typical).

SMILES | CSC inhib | MT1-MMP act inh | MT1-MMP act inh RFP | Rce1 inh | Env fusion inh | PABP polyA inh | eIF4H inh | UUG fidelity
O=C(NC1CCCC1)C(c1ccco1)N(C(=O)c1csnn1)c1ccccc1 (stereo not drawn) | -14 | -2 | 2 | i | 13 | -8 | 1 | -13
CC(Sc1nnc(-c2ccco2)n1C)C(=O)N1C(C)CCCC1C (stereo not drawn) | -5 | 0 | 3 | i | -222 | 6 | -8 | -6
O=C(Cn1c(C(F)(F)F)nc2ccccc21)OCC(=O)c1c[nH]c2ccccc12 | -8 | 0 | 2 | i | 9 | 4 | 1 | -5
O=C(NCc1ccccc1)c1ccc(Cl)cc1 | -9 | . | . | i | -23 | -1 | -11 | .
CCOC(=O)c1ccc(NC(=S)Nc2cccc(C)n2)cc1 | 3 | 1 | 4 | i | 10 | -9 | 17 | -9
COc1ccc(OC)c(CNC(=O)CCCc2cn(C)c3ccccc23)c1 | -2 | 2 | 4 | i | -7 | 12 | 1 | 12
Cc1ccccc1N1CC(=O)N(c2ccccc2C)CC1=O | 6 | 36* | 0.6* | i | -162 | -1 | -5 | 4
CC1CN(c2sc(S(C)(=O)=O)nc2S(=O)(=O)c2ccc(Cl)cc2)CC(C)O1 (stereo not drawn) | 0 | -14 | -17 | i | 7 | 12 | -2 | -2
COc1ccc(C(=O)/C=C/Nc2ccc(S(=O)(=O)Nc3onc(C)c3C)cc2)cc1 | -18 | 1 | 1 | i | 3 | -7 | -4 | .
c1ccc(-c2noc(-c3ccc4ccccc4c3)n2)nc1 | 19 | 1 | -1 | i | . | -4 | -11 | -89
Cc1ccc(S(=O)(=O)N(C)c2ccc(OCC(=O)N3CCCCC3)cc2)cc1 | . | 4 | 2 | i | 3 | 4 | 5 | -10
CC1CC(NC(=O)N(C)C)N(C)C(=O)N1 (stereo not drawn) | 0 | 2 | 8 | i | -6 | 14 | 2 | -23
CCOCCn1c(=NC(=O)CSCC(=O)N2CCOCC2)sc2cc(OC)ccc21 | -2 | -1 | -2 | i | -10 | 6 | -9 | -3
COc1ccc(Cl)cc1C(=O)NNC(=O)c1cccs1 | 5 | 3 | 1 | . | -172 | . | . | -1
CC(C)CN1C(=O)C(=Nc2cccnc2)c2ccccc21 | -13 | -5 | 3 | i | 3 | -2 | -3 | .
CC(=O)Nc1cccc(OCC(O)Cn2c(C)nc3ccccc32)c1 (stereo not drawn) | -12 | . | . | i | 27 | 13 | -13 | -6
O=C1NC[C@H](Cc2ccccc2)N(C[C@@H]2CCCN2C[C@H](Cc2ccccc2)N2C[C@H](Cc3ccccc3)N(CCc3ccccc3)C(=O)C2=O)C1=O | . | 3 | 0 | . | -75 | . | . | 3
NS(=O)(=O)c1ccc(NC(=O)c2cc(-c3cc(Cl)ccc3O)n[nH]2)cc1 | 27 | 3 | 0 | i | 10 | 8 | 3 | -7
CCN(CC(=O)Nc1ccc(OC)cc1)C(=O)Cc1ccc(OC)c(S(=O)(=O)N2CCOCC2)c1 | 0 | -1 | -3 | . | 0 | . | . | -24
COCCn1c(C)cc2c(c1=O)C(c1ccccc1F)C(C#N)=C(N)O2 (stereo not drawn) | -5 | 2 | 4 | i | 11 | -2 | 0 | 0
COc1ccc(C(=O)NCC(c2ccco2)N2CCc3ccccc32)cc1OC (stereo not drawn) | 5 | -8 | -3 | i | 1 | . | . | -3
CN(C(=O)COC(=O)c1ccc2c(c1)OCCO2)C1CCCCC1 | . | 1 | 5 | . | -11 | . | . | -22
CCN(C(=O)COc1ccc(C)cc1OC)c1cccc2ccccc12 | 22 | -6 | 1 | . | 20 | . | . | -12
O=C(NNCc1ccccc1)c1ccccc1 | . | 1 | 3 | . | 21 | . | . | -37
Oc1ccc(N=Nc2ccccc2)o1 | 41 | 2 | 4 | i | -15 | -1 | 9 | -22
COC(=O)c1ccc(NC(=O)Cn2nnc3ccccc32)cc1 | 4 | 8 | -5 | i | . | -8 | -2 | 13
CN1CCN(c2ccc(NC(=O)COc3cccc4ccccc34)cc2)CC1 | 45 | -2 | -3 | i | 9 | 4 | 0 | -23
Cc1noc(-c2ccccc2)c1NC(=O)Nc1ccc(Cl)cc1 | 2 | 2 | -5 | . | 16 | -10 | -9 | .
O=C(CCn1cnc2ccccc21)N/N=C/C=C/c1ccccc1 | 4 | 2 | 1 | i | 2 | 0 | -4 | -11
Cc1ccc2c(Cl)cc(Cl)c(OCC(=O)N3CCCC3)c2n1 | 1 | 3 | 1 | i | -10 | -3 | 5 | .
S=c1[nH]nc(C2CCCCC2)n1/N=C/c1ccco1 | -12 | 2 | 3 | i | . | 4 | -2 | -18
O=C(O)c1cc(S(=O)(=O)N2CCN(c3ccccn3)CC2)ccc1Cl | -6 | 0 | 3 | i | -13 | -1 | -3 | -7
CC(C)(C)C(=O)/C=c1\[nH]c(=O)/c(=C\c2ccc(C#N)cc2)s1 | 30 | -6 | -10 | i | 11 | 8 | 15 | .
C=CCNC1=C(Cl)C(=O)N(Cc2ccccc2)C1=O | -3 | 4 | 2 | . | -6 | -4 | -3 | 1
O=C(CCNC(=O)c1ccco1)Nc1ccccc1 | 23 | 7 | 4 | i | -7 | 1 | -4 | -13
Cc1nc(NC(=O)C(C)Oc2cccc(Cl)c2)sc1C(=O)N(C)C (stereo not drawn) | -7 | -1 | 4 | i | -5 | 1 | 0 | .
CCCC(=O)N1CC(=O)Nc2ccc(C)cc2C1c1ccccc1 (stereo not drawn) | -14 | 1 | 1 | i | 14 | -6 | -4 | -4
Cc1ccc(S(=O)(=O)Nc2cccc3c2O[C@H](CN(C)Cc2ccccc2)[C@@H](C)CN([C@H](C)CO)C3=O)cc1 | 6 | 2 | 4 | . | -13 | . | . | -11
COc1ccccc1OCCC(=O)NNC(=O)c1ccccc1F | . | 5 | 5 | . | -10 | . | . | -19
CCc1cc2ccc(OC)cc2nc1SCC(=O)Nc1cc(C)on1 | -6 | -5 | -3 | i | . | -6 | -13 | -3
O=C(Nc1c(-c2ccccc2)[nH][nH]c1=O)c1ccco1 | . | 2 | 6 | . | 17 | . | . | -15
COc1ccc(-c2nn(-c3ccccc3)cc2C(=O)Nc2cccc(S(=O)(=O)NC3=NCCC3)c2)cc1 | -1 | -2 | -5 | . | . | . | . | -2
Cc1ccc(NC(=O)CNC(c2ccccc2)c2ccccc2)c(F)c1 | 4 | 4 | -1 | i | -12 | 2 | 2 | .
COc1cccc(/C=N/NC(=O)CNC(=O)c2ccncc2)c1O | 46 | 1 | 1 | i | 5 | -4 | -8 | -16
CCCCCCn1c(=O)n2n(c1=O)[C@@H]1CN(S(=O)(=O)c3ccc(C)cc3)C[C@]1(O)[C@@H](OC(=O)NC1CC1)C2 | . | 1 | 3 | . | -292 | . | . | -3
CN(C)C1(CNC(=O)C2CCN(S(=O)(=O)c3ccccc3C(F)(F)F)CC2)CCCCC1 | -14 | -2 | 2 | i | 8 | 23 | -8 | -14
CCOc1ccc(C(=O)N(c2ccccn2)C2CCCCC2)cc1 | -1 | 4 | 1 | i | 6 | 3 | -4 | -6
O=C(Cc1cccs1)Nc1nc2c(ccc3ccccc32)s1 | 16 | -20 | -23 | i | . | 4 | 2 | .
COc1ccccc1NC(=O)CSc1nc2c(oc3ccccc32)c(=O)n1C | 7 | 0 | -4 | i | 2 | . | . | -11
Cc1ccc2c3c(c(SCC(=O)Nc4nonc4C)nc2c1)CCCC3 | . | 4 | 2 | i | -23 | -11 | -11 | -16
COc1ccc(C(=S)N2CCN(c3ccccc3Cl)CC2)cc1OC | -2 | 0 | 1 | i | 12 | 22 | 8 | -11
O=C(OCC(=O)N1CCc2ccccc21)C1CCCN1S(=O)(=O)c1ccc(Cl)cc1 (stereo not drawn) | . | 2 | 2 | . | -107 | . | . | -5
O=Cc1cccn1-c1ccc2ccccc2c1 | -12 | 0 | -1 | i | -1 | -5 | -4 | -18
O=C(CC12CC3CC(CC(C3)C1)C2)NCC(=O)OCc1cc(=O)oc2ccc3ccccc3c12 | -4 | 1 | 3 | i | 6 | 4 | -2 | 6
Cn1c(=O)c2c(-c3ccccc3)n(-c3ccc(N)cc3)cc2n(C)c1=O | . | -4 | 8 | . | -6 | . | . | -7
Cc1nc2sc(C(c3ccco3)N3CCN(c4ccc(F)cc4)CC3)c(O)n2n1 (stereo not drawn) | -8 | -1 | 0 | i | 2 | -1 | 6 | -10
COCCCN(C(=S)NC(=O)c1ccc(Br)cc1)c1c(N)n(Cc2ccccc2)c(=O)[nH]c1=O | -21 | -3 | -2 | i | 6 | -3 | -4 | .
Cn1c(CCNC(=O)c2ccccc2)nc2ccccc21 | -4 | 15 | -2 | i | . | 1 | 1 | -10
COc1cccc(-c2ccc3nnc(SCC(=O)N4CCCC4)n3n2)c1 | -5 | 1 | -2 | i | -9 | . | . | .
O=C(c1cccc(-n2cccc2)c1)N1CCN(S(=O)(=O)c2ccc(F)cc2)CC1 | -7 | -6 | 0 | i | 11 | 6 | 28 | 2
Later entries.
SMILES | CSC inhib | MT1-MMP act inh | MT1-MMP act inh RFP | Rce1 inh | Env fusion inh | PABP polyA inh | eIF4H inh | UUG fidelity
CSCCCN1CCCC(CO)(Cc2ccccc2F)C1 (stereo not drawn) | -3 | -2 | -4 | i | -23 | 12 | 7 | -10
O=C(NC1CCCC1)c1ccccc1-c1nc2ccccc2[nH]1 | -13 | 0 | 1 | i | . | -8 | -4 | -16
Cc1ccccc1-n1c(C)nnc1SCc1nc2ccccc2s1 | -1 | -2 | 1 | i | . | 4 | 0 | -10
COc1ccccc1C(C#N)c1cccc(Cl)n1 (stereo not drawn) | -17 | 2 | 0 | i | 7 | 0 | 6 | -22
CC(=O)n1cc(CO)c2ccccc21 | -6 | -1 | 4 | . | . | -3 | -6 | -21
CC(C)c1ccccc1OCCCN1CCCC1 | -7 | 5 | 2 | i | 20 | 20 | 16 | -16
O=C(/C=C\Nc1ccc2c(c1)OCO2)c1ccc(Cl)s1 | 69 | -2 | 1 | i | -208 | -5 | 11 | 10
CCCN1C(=O)c2cc(C(=O)O)ccc2C1O (stereo not drawn) | -2 | -1 | 5 | i | -11 | -8 | -5 | -12
COc1cc(OC)cc(-c2cn[nH]c2N)c1 | -5 | -2 | -4 | i | 3 | 0 | -1 | .
CN(Cc1ccccc1)c1ccc(S(=O)(=O)N2CCOCC2)cn1 | -11 | 7 | -1 | i | . | -1 | -3 | .
O=S(=O)(c1ccccc1)c1nc(-c2ccco2)oc1NCc1ccco1 | 4 | 0 | 3 | i | . | -3 | -2 | -13
CC(CN1CCCCC1)OC(=O)C1c2ccccc2Oc2ccccc21 (stereo not drawn) | 0 | -1 | 5 | i | -10 | 8 | 8 | 3
Cc1nn(C)c(Oc2cccc(Cl)c2)c1C#N | -8 | -2 | 6 | i | 16 | 7 | -5 | -17
C[n+]1cc[nH]c1SCC(=O)c1ccc(Cl)cc1 | -7 | -2 | -5 | i | -16 | -3 | -12 | -34
O=C(NCCCN1CCCC1)c1ccc2c(c1)N(Cc1cccc(Cl)c1)C(=O)c1ccccc1S2=O (stereo not drawn) | -7 | -1 | -1 | i | -1 | -13 | -13 | 9

Record cards, from the list above:
C[n+]1cc[nH]c1SCC(=O)c1ccc(Cl)cc1 is entered as CSC inhib = -7; MT1-MMP act inh = -2; MT1-MMP act inh RFP = -5; Rce1 inh = i; Env fusion inh = -16; PABP polyA inh = -3; eIF4H inh = -12; UUG fidelity = -34
CSCCCN1CCCC(CO)(Cc2ccccc2F)C1 (stereo not drawn) is entered as CSC inhib = -3; MT1-MMP act inh = -2; MT1-MMP act inh RFP = -4; Rce1 inh = i; Env fusion inh = -23; PABP polyA inh = 12; eIF4H inh = 7; UUG fidelity = -10
COc1cc(OC)cc(-c2cn[nH]c2N)c1 is entered as CSC inhib = -5; MT1-MMP act inh = -2; MT1-MMP act inh RFP = -4; Rce1 inh = i; Env fusion inh = 3; PABP polyA inh = 0; eIF4H inh = -1; UUG fidelity = .
